ClpP mod = qHTS Assay for Activators of ClpP | ATP-dependent Clp protease proteolytic subunit (Bacillus subtilis (strain 168)), P80244 | purified B. subtilis ClpP, FRET peptide cleavage, 20 min | AID 651965, 2013 | Potency, µM (titrated, usually from 57.5 µM), for inactives: at the top dose activity change, negative = active | hit rate 1.9% among 340,000; active = well fitted falling curve with a large enough effect; inconclusive = small, poorly fitted or top-dose-only effect; inactive = no such curve, though single readings can be large or run the other way; further: potency means the concentration at half of the fitted maximal effect; the source files actives as falling curves though it sought activators and does not explain the sign; nearly all actives have a fitted effect of over 65% in size; many hits overshoot -100%
Target sequence (P80244 whole entry, looked up): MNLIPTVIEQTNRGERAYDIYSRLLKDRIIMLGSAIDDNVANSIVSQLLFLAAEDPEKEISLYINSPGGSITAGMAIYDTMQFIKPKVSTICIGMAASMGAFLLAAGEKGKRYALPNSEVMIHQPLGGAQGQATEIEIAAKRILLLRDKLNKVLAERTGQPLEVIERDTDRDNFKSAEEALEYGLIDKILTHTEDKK
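FRET quenching reversal measured ClpP activation: 10 microg/mL B. subtilis ClpP at pH 8 with the FRET-FV decapeptide, read at 430 nm after 320 nm excitation. The 20-min minus 0-min signal was scaled between DMSO/no-enzyme wells and ADEP (5.8 microM final).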
Sfp inh = blocks B. subtilis Sfp PPTase activity | Potency, µM, for inactives: max response, negative = inhibition, most hits filed as inhibitors | hit rate 3.5% among 310,000 | Biochemical Sfp PPTase activity, qHTS; active means well fitted inhibition curve with a large enough effect; inconclusive means small, poorly fitted or top-dose-only effect, or another doubt; inactive means no such curve, though single readings can be large or run the other way;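 further: the enzyme is Sfp with the accession as filed and its product quenches rhodamine fluorescence; potency means the concentration at half of the fitted maximal effect; 0% = enzyme reaction without inhibitor and -100% = no enzyme wells; top concentration of the series not given in the record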
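Reaction rates are the 30-min fluorescence difference (ex 525, em 598 nm) in wells containing 15 nM Sfp, 5 uM rhodamine-CoA and 12.5 uM BHQ-2-YbbR at pH 7.6 with 10 mM MgCl2.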
TRPV1 potentiator = enhances activation of the human vanilloid receptor TRPV1. TRPV1-expressing cells, Fluo-8 calcium influx, capsaicin EC20 potentiation; host cell line not named in the record; control for the full effect not named in the record. potentiation, % at 8.33 µM. hit rate 0.02% among 320,000; active means potentiation above 80%; inconclusive means 30% to 80%; inactive means below 30%; further: 0% is about no effect
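TRPV1-expressing cells were cultured overnight at 35.5C and loaded with Fluo-8 calcium dye for 40 to 90 min at room temperature. After a 10 s baseline, compound was added and calcium influx was read kinetically for 3 min (ex 480/em 520 nm).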
gsp antagonist = antagonists of gsp mutant (McCune-Albright syndrome) | Potency, µM (doses to about 76.9 µM), for inactives: at the top dose activity change, negative = inhibition, hits mostly inhibitors | hit rate 0.4% among 340,000 | gsp-mutant cells, cAMP HTRF, 30 min; control for the full effect not named in the record; active = falling curve of any shape with a large fitted effect; inconclusive = falling curve, mostly with a smaller effect; inactive = flat or rising curve; cell line not stated here;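 further: intracellular cAMP measured with PDE inhibitor Ro 20-1724 present during compound exposure; potency means the concentration at half of the fitted maximal effect; on the % scale 0 is the no-effect control and ±100 the full control effect; nearly all actives have a fitted effect of over 65% in size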
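Measurement of cellular cAMP by homogeneous time-resolved fluorescence following a 30 min compound exposure at 37C. The PDE inhibitor […] was present throughout; the assay buffer was DPBS with 0.05% BSA and 0.005% Tween 20.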
D2 potentiator = positive allosteric modulators of human D2 dopamine receptor. P14416. DiscoveRx D2 beta-arrestin cells, luminescence, 90 min; 100% = 57 uM dopamine signal. potentiation, % (no concentration beside the values). hit rate 0.23% among 360,000; active = potentiation of 50% or more; inconclusive = 30% to 50%; inactive = 30% or less;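 further: compound concentration not given in the record; tested on top of an EC20 dose of dopamine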
Target sequence (P14416 whole entry, looked up): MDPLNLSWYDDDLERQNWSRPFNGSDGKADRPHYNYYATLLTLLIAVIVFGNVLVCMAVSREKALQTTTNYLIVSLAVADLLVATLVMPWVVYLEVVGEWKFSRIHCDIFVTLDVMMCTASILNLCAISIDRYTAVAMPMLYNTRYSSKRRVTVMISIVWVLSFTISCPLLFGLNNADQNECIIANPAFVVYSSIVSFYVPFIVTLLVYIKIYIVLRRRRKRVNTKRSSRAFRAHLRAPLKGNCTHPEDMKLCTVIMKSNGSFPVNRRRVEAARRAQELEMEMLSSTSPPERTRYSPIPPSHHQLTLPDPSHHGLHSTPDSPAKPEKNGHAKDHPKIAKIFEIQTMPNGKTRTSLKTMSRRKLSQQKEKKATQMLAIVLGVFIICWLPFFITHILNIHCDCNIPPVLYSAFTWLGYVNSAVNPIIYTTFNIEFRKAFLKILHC
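D2 cells co-treated with compound plus 50 nM dopamine (EC20) for 90 min at 37 deg C to detect potentiation. Beta-arrestin recruitment was read as enzyme-fragment luminescence after 1 h at ambient temperature. Full response was set by 57 uM dopamine.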
gsp agonist = agonists of gsp mutant (McCune-Albright syndrome) | gsp mutant cells, cAMP HTRF, 30 min; control for the full effect not named in the record | Potency, µM (highest dose often 76.9 µM), for the others: top-dose activation (cAMP increase), actives largely listed as activators | hit rate 0.13% among 340,000; active = well fitted activation curve with a large enough effect; inconclusive = small, poorly fitted or top-dose-only effect, or another doubt; inactive = no such curve, though single readings can be large or run the other way; cell line not stated here;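 further: phosphodiesterase inhibitor Ro 20-1724 added with compounds to block cAMP breakdown; potency means the concentration at half of the fitted maximal effect; nearly all actives have a fitted effect of over 60% in size; about a fifth of the inactives were tested at one dose only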
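Cells stably selected in G418 were plated at 2000/well, grown 16-24 hr, then given compounds in DMSO with the PDE inhibitor […] (300 uM solution added) for 30 min at 37C; cAMP was read by HTRF.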
Menin-MLL FL inh = inhibitors of human menin-MLL interaction, wild-type MLL peptide | Fluorescence polarization, fluorescein-MLL peptide displacement from menin | 290,000 tested, under 10 active | FP activity change, % at 61.4 µM; inconclusive = falling polarisation curve, or a change in total fluorescence; inactive = total fluorescence flat and polarisation flat or rising; no compound was filed as active; the % refers to the polarisation; negative = inhibition;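 further: % of control where 0% means no effect; inhibitors lower the polarisation; unlabelled MLL peptide was the positive control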
The depositor's hits bear a star; ? = inconclusive; . = no result given; & = joins results of further samples; [ ] = remark or other dose.

SMILES | ClpP mod | Sfp inh | TRPV1 potentiator | gsp antagonist | D2 potentiator | gsp agonist | Menin-MLL FL inh
OC1(c2ccc(Cl)c(Cl)c2)C[n+]2ccccc2N1Cc1ccccc1 (stereo unspecified) | . | ? | 4 | 11% | -8 | 24%[15.4 µM] | 6.4
COc1ccc(O)c(C(=O)CC(=O)c2ccccc2C)c1 | . | 12% | 9 | -6% | -13 | -10% | -0.3
CC[C@H](C)[C@H](NC(=O)OCc1ccccc1)C(=O)Nc1ccc(NC(C)=O)cc1 | . | 12% | 8 | 1% | -3 | -38%[inhibitor] | -0.6
O=S(=O)(Nc1cccc(-n2cnnn2)c1)c1ccccc1 | -1.0% | 13% | 14 | 5% | -1 | 4% | .
CCOC(=O)C1=NNC(C(=O)OCC)C1c1ccccc1 (stereo unspecified) | -10% | . | . | 4% | -4 | -1% | .
O=C(Nc1ccccc1F)c1cc(S(=O)(=O)N2CCOCC2)cs1 | -2.1% | 10% | -17 | -12% | -11 | 22% | -1.5
COC(=O)CN(c1ccc(OCc2ccccc2)cc1)S(C)(=O)=O | . | 6% | ? | 3% | -1 | -22% | -9.2
O=C(Nc1ccc(SC(F)F)cc1)C1=CC=CN2CCS(=O)(=O)N=C12 | -3.5% | . | -11 | 0% | -2 | ? | .
O=C(C1CC(c2ccc(F)cc2)=NO1)N1CCCCC1 (stereo unspecified) | 0.5% | -7% | -30 | -12% | -8 | 3% | 1.8
Cn1nc(-c2ccc(C(=O)NC3CCCCC3)cc2)c2ccccc2c1=O | . | 6% | -17 | -10% | -3 | 3%[15.4 µM] | -0.2
O=S(=O)(O)c1ccc2c(N=Nc3ccc(S(=O)(=O)O)c4ccccc34)c(O)c(S(=O)(=O)O)cc2c1 | -5.3% | -23% | . | . | . | . | 3.9
CCOC(=O)COc1ccc(S(=O)(=O)N2CCN(c3ccc(F)cc3)CC2)cc1 | -0.1% | 17% | 9 | -35% | -4 | 13% | 1.3
Cc1cc(C)c2[nH]c(O)c(N=NC(=S)NCC3CCCO3)c2c1 (stereo unspecified) | 1.3% | ? | 3 | 0% | -36 | 3%[15.4 µM] | 0.9
CCOC(=O)CNc1nc(Cl)nc(Nc2ccccc2)n1 | . | 6% | 2 | 4% | -3 | 12%[15.4 µM] | 2.3
CCCN=C1N(C)C[C@@H]2[C@@H]3C(=O)N(C)C(=O)[C@@H]3[C@](C)(C(=O)OC)N12 | -1.7% | . | . | 3% | -5 | . | .
Cc1cc(NC(=O)c2ccc(C#N)cc2)on1 | -1.4% | -4% | -4 | -8% | -7 | 6% | 1.5
Cc1nccn1CC(O)COc1ccc([N+](=O)[O-])cc1 (stereo unspecified) | . | -5% | 13 | -10% | 1 | 13% | -2.1
O=C(O)c1ccc(NC(=O)c2cc3ccccc3o2)cc1 | 1.6%&0.0% | 10% | ? | -9% | 2 | -44%[inhibitor] | 2.9
Cc1ccc(S(=O)(=O)N(C)CCCC(=O)n2nc(C)cc2C)cc1 | 1.2% | 2% | 4 | -2% | 20 | 15% | 4.7
O=C(CNC(=S)N(CCCN1CCOCC1)Cc1cccs1)NCc1ccccc1Cl | 1.3% | 11% | 3 | 6% | 0 | -6% | .
CCn1c(CNC(=O)c2ccc3c(c2)OCO3)nnc1SCC(=O)Nc1cc(C)ccc1OC | -4.6% | 9% | 1 | 7%[15.4 µM] | -26 | 4% | -0.9
C=CCNC(=S)NNC(=O)c1ccc(OCCCC)cc1 | 12% | 21% | -8 | -10% | -13 | 16% | 0.3
Cc1ccc(-n2ncc3c(SCc4cccnc4)ncnc32)c(C)c1 | . | -1% | -20 | ? | -6 | -3%[15.4 µM] | 2.9
COC(=O)[C@H]1C[C@@]2(O)CN(S(=O)(=O)c3ccc(C)cc3)C[C@@]2(OC(=O)NCc2ccccc2F)C[C@H]1C(=O)OC | 0.4% | . | . | . | 6 | 6% | .
COCCNC(=S)Nc1ccc2nc(N3CCN(C)CC3)cc(C)c2c1 | . | 0% | -5 | 2% | -9 | 28%[15.4 µM] | 1.8
CCOCCn1c(=NC(=O)c2cc3ccccc3oc2=O)sc2cc(S(N)(=O)=O)ccc21 | 7.0% | -4% | 6 | -18% | -9 | -4%[15.4 µM] | 0.4
Cn1nc([N+](=O)[O-])nc1N1CCOCC1 | . | 0% | 11 | 3% | -2 | 30% | 7.6
COC(=O)c1cc(NC(=O)CN(c2ccccc2OC)S(=O)(=O)c2ccccc2)ccc1Cl | -2.6% | 4% | 2 | ? | -7 | -17% | -0.7
COc1cccc(NC(=O)c2ccc[n+](C)c2)c1 | -0.4% | -1% | 1 | 7% | -6 | -15% | 28
COc1ccc(N2CCN(C(=O)CSc3nnnn3C3CC3)CC2)cc1 | -1.4% | . | 6 | 2% | -2 | -54%[inhibitor] | .
CCOC(=O)c1ccccc1NC(=O)COC(=O)c1c(CC)noc1C | -18% | . | -1 | -28% | -6 | -4%[15.4 µM] | .
CSC(=S)N/N=C/c1ccc(N(C)C)cc1 | . | 5% | -8 | 4% | 10 | -17% | 2.1
CC1CCN(CC(C)OC(=O)c2ccco2)CC1 (stereo unspecified) | . | 9% | 4 | -3% | -17 | -29% | 4.5
S=C(Nc1ccc(Cl)cc1)c1sc(N2CCCCC2)nc1N1CCOCC1 | -3.5% | ? | 6 | -13% | -5 | 0% | -0.6
O=C(O)Cn1cnc2sc3c(c2c1=O)CCCC3 | . | 21% | 10 | 4% | -6 | 4%[15.4 µM] | -13
CC1(c2ccc3ccccc3c2)NC(=O)N(CC(=O)NCc2cccs2)C1=O (stereo unspecified) | 1.7% | 1% | 2 | -1% | -8 | -25% | 5.0
O=C(NCC1CCCO1)C(=O)c1c[nH]c2ccccc12 (stereo unspecified) | -1.0% | 17% | -3 | 2% | -2 | 1% | -2.8
CCOc1ccccc1N1CCN(C(=O)c2ccc3[nH]c4c(c3c2)CCCC4)CC1 | -8.4% | -12% | 14 | -15% | -18 | -52%[inhibitor] | 0.4
Cc1ccc2sc(N3CCN(CCNC(=O)c4ccco4)CC3)nc2c1C | -2.3% | . | -13 | -22% | -23 | -32%[inhibitor] | .
Cc1ccc(CN2CCN(Cc3ccc4ncccc4c3)CC2CCO)cc1 (stereo unspecified) | . | 1% | 5 | -4% | -21 | 10%[15.4 µM] | -1.3
CNc1nc(C)c(C#N)c(-c2ccccc2)c1C(C)=O | -4.9% | 6% | -3 | -6%[15.4 µM] | -12 | -2% | 6.4
Cc1c(NC(=O)CSc2ccc(Cl)cc2)cccc1-c1nc2ncccc2o1 | -4.3% | -19% | -16 | ? | -14 | -10% | 4.8
O=C(Nc1ccccc1)OC1CCCCc2cccnc21 (stereo unspecified) | . | 2% | -3 | 1% | -1 | 9% | 1.7
CC(=O)c1sc(NC(=O)c2ccc(Cl)cc2)nc1C | -2.4% | 10% | 7 | 7% | -6 | ? | -5.4
CN(C)c1nc(C(=O)OCCO)nc(N(C)C)n1 | 1.0% | 2% | 8 | 2% | -2 | 3% | -4.3
COc1ccc(/C=C/C(=O)Nc2cc(S(=O)(=O)N3CCCCC3)ccc2N2CCCCC2)cc1OC | -18% | 12% | 9 | 8% | -12 | 7% | 4.9
Cc1cc(C(F)F)nn1CC(=O)NC1C(=O)N2C(C(=O)O)=C(CSc3nnnn3C)CSC12 (stereo unspecified) | . | 56µM* | -2 | 7% | -2 | -14% | -1.1
O=[N+]([O-])c1cc(C(F)(F)F)ccc1NCCc1c[nH]c2ccccc12 | -1.9% | 20% | 2 | -8% | -19 | 2%[15.4 µM] | -1.9
COc1ccc(-n2c(C)cc(C(=O)CN3C(=O)NC4(CCc5ccccc54)C3=O)c2C)cc1 (stereo unspecified) | 9.5% | -7% | 3 | -6% | -5 | 5%[15.4 µM] | 7.2
CC(C)N(CC#CC(O)(c1ccccc1)c1ccccc1)C(C)C | 32µM* | -13% | . | -2% | -15 | 1%[15.4 µM] | 1.1

The list goes on.
SMILES | ClpP mod | Sfp inh | TRPV1 potentiator | gsp antagonist | D2 potentiator | gsp agonist | Menin-MLL FL inh
COCCCn1c(SCc2cccc(C(F)(F)F)c2)nc2cc(OC)c(OC)cc2c1=N | -3.3% | 24% | ? | 7% | -17 | 26% | 1.4
CN(C)S(=O)(=O)c1ccc(NC(=O)CN2CCC(Cc3ccccc3)CC2)cc1 | -0.2% | 4% | -5 | 1% | -3 | ? | -1.9
CCOC(=O)c1c(C)[nH]c(C)c1S(=O)(=O)N(C)CC(=O)NCc1cccc(Br)c1 | 1.0%&-0.9% | 0% | -6 | 0% | -6 | ? | .
CCOC(=O)c1sc2nc(N3CCOCC3)c3c(c2c1N)CC(C(C)C)OC3 (stereo unspecified) | -37% | 6% | 7 | 1% | -4 | 6% | 4.2
CCc1ccc(NC(=O)C(=O)NCc2ccccn2)cc1 | -2.2% | 14% | -31 | 10% | -4 | -1%[15.4 µM] | 1.0
NC(=O)C(Cc1ccccc1)N1C(=O)c2ccccc2C1=O (stereo unspecified) | 1.0% | 19% | 10 | 9% | -4 | -1%[15.4 µM] | -5.2
COc1ccccc1C(=O)N1CC2(C)CC1CC(C)(C)C2 (stereo unspecified) | 0.9% | 24% | -6 | -9% | -20 | -45%[inhibitor] | -1.7
COc1ccc(Cn2c(CCC(=O)O)nc3cccnc32)cc1 | -0.4% | 8% | 1 | -3% | 0 | 0% | -0.7
COC(=O)N/N=C(\C)c1ccco1 | . | 18% | -21 | 0% | -1 | 14%[15.4 µM] | -1.2
COc1cccc(C2=CC(=O)C[C@H](c3ccc(OC)c(OC)c3)C2)c1 | -0.8% | . | -20 | -14% | 1 | . | .
O=C(c1ccc(N2CCOCC2)c([N+](=O)[O-])c1)N1CCN(c2ccccc2F)CC1 | -2.5% | . | . | -3% | -14 | -3%[15.4 µM] | .
Fc1ccc(-c2cc(-c3nnc4n3CCCCC4)c3ccccc3n2)cc1 | ? | -3% | 6 | -2% | -4 | ? | -0.4
O=c1c2ccccc2ncn1-c1ccc(Cl)cc1[N+](=O)[O-] | 2.1% | 2% | -13 | 6% | 1 | ? | 1.3

High-throughput results from PubChem BioAssay.

No enrichment for hits, and some 5.1% of all compounds hit somewhere here.
